D2 ag = agonists of human D2 dopamine receptor (beta-arrestin). activation, % (concentration not given with the values). 0.084% of 360,000 active. AID 624465. DiscoveRx PathHunter D2 beta-arrestin, luminescence, 90 min; 100% = 57 uM dopamine signal; in the data active = activation above about 40%; inconclusive = about 15% to 40%; inactive = below about 15%; note: compound concentration not given in the record; the text of the record calls up to 30% inactive
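Agonist mode: compounds alone added to overnight-plated D2 PathHunter cells for 90 min at 37 C, with 57 uM final dopamine (EC100) defining full response. Beta-arrestin recruitment detected by chemiluminescent reagent, read after 1 h at ambient temperature.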
Sfp inh = Sfp phosphopantetheinyl transferase inhibition; Potency, µM, for inactives: max response, negative = inhibition, hits mostly inhibitors; Q9F4F7; Biochemical Sfp PPTase activity, qHTS; AID 1490; 3.5% of 310,000 active; active = well fitted inhibition curve with a large enough effect; inconclusive = small, poorly fitted or top-dose-only effect, or another doubt; inactive = no such curve, though single readings can be large or run the other way;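 note: the enzyme is Sfp with the accession as filed and its product quenches rhodamine fluorescence; potency is the fitted concentration of half-maximal effect; 0% = enzyme reaction without inhibitor and -100% = no enzyme wells; top concentration of the series not given in the record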
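Sfp 15 nM + cpd, 15 min RT; start w/ rhodamine-CoA 5 uM, BHQ-2-YbbR 12.5 uM (final); 50 mM Hepes pH 7.6, 10 mM MgCl2, 0.01% NP-40, 0.01% BSA; read 525/598 nm at 0 and 30 min.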
Six1-Eya2 inh = blocks human Six1 binding to Eya2 | Q15475+O00167 | AlphaScreen GST-Six1/His-Eya2 binding, biochemical; active compounds read low; control for the full effect not named in the record | activity change, % (test concentration not listed) | 0.56% of 360,000 active | AID 651725; in the data active = activity change below about -65%; inconclusive = about -30% to -65%; inactive = above about -30%; note: % is set by controls: 0 for no effect and ±100 for the full control effect
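Six1/Eya2 binding was read as AlphaScreen signal after compounds were pinned into GST-Six1 plus His-tagged Eya2 (5X stock 250/500 nM) in pH 8.0 Tris/NaCl/TCEP buffer, beads added, then incubated 1 h, 37 C, dark.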
D2 potentiator = positive allosteric modulators of human D2 dopamine receptor | DiscoveRx D2 beta-arrestin cells, luminescence, 90 min; 100% = 57 uM dopamine signal | potentiation, % (test concentration not listed) | 0.23% of 360,000 active; active = potentiation of 50% or more; inconclusive = 30% to 50%; inactive = 30% or less;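 note: compound concentration not given in the record; tested on top of an EC20 dose of dopamine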
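D2 cells co-treated with compound plus 50 nM dopamine (EC20) for 90 min at 37 deg C to detect potentiation. Beta-arrestin recruitment was read as enzyme-fragment luminescence after 1 h at ambient temperature. Full response was set by 57 uM dopamine.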
TRPV1 PAM = potentiators of human vanilloid receptor 1 (TRPV1) | 0.02% of 320,000 active | AID 540277 | potentiation, % at 8.33 µM | Q8NER1 | TRPV1-expressing cells, Fluo-8 calcium influx, capsaicin EC20 potentiation; host cell line not named in the record; control for the full effect not named in the record; active means potentiation above 80%; inconclusive means 30% to 80%; inactive means below 30%; note: 0% is about no effect
Target sequence (Q8NER1 whole entry, looked up): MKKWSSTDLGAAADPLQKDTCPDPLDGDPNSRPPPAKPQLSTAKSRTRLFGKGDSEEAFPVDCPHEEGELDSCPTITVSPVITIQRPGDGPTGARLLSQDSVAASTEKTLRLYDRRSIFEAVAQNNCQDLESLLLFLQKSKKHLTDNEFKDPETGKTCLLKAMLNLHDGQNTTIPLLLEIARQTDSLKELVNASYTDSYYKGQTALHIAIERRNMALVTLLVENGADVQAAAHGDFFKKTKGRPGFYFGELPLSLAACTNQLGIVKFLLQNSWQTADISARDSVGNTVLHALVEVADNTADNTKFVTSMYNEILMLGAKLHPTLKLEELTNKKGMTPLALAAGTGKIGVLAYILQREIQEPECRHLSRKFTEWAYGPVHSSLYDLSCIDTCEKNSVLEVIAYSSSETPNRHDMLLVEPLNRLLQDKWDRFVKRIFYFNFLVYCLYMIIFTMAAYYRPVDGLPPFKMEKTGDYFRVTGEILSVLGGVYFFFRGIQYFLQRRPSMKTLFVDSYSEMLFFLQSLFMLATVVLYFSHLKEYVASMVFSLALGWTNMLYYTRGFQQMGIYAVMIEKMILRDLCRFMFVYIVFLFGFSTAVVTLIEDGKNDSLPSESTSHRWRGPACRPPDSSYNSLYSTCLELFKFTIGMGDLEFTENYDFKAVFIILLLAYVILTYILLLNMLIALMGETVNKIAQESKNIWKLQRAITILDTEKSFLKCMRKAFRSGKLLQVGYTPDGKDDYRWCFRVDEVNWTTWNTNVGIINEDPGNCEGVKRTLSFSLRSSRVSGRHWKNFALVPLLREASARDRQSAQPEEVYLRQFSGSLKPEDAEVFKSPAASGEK
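Cells expressing TRPV1 were dye-loaded with Fluo-8 and read kinetically: 10 s baseline, 3 min after compound (agonist portion), then 2 min after EC20 capsaicin (allosteric enhancer portion). Calcium-bound dye fluorescence at 480/520 nm.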
PINK1 expr mod = modulators of PINK1 expression; PINK1 immunofluorescence, high-content cytometry, 24 h; Potency, µM (highest dose often 76.6 µM), for inactives: at the top dose activation (PINK1 increase), most hits filed as activators; 0.2% of 410,000 active; active = well fitted activation curve with a large enough effect; inconclusive = small, poorly fitted or top-dose-only effect; inactive = flat fitted curve, though single readings scatter; cell line not stated here;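 note: potency is the fitted concentration of half-maximal effect; % of control where 0% means no effect; nearly all actives have a fitted effect of over 65% in size; a mitochondrial uncoupler was the plate control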
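Decision-based qHTS: stable cells, 24 h exposure to five compound concentrations, CCCP as control. Fixed cells stained for PINK1 plus nuclear, mitochondrial and cell markers, cytometer read.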
CtBP-E1A inh = inhibitors of CtBP/E1A interaction; 0.49% of 340,000 active; AlphaScreen GST-E1A/His-CtBP binding, 1536-well; active compounds read low; control for the full effect not named in the record; activity change, % (no concentration beside the values); in the data active means activity change below about -65%; inconclusive means about -30% to -65%; inactive means above about -30%; note: % is set by controls: 0 for no effect and ±100 for the full control effect
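Homogeneous bead-based format: GST-tagged E1A captured on glutathione donor beads, His-tagged CtBP on nickel acceptor beads; compounds precede bead addition by 2 h at 37 °C.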
The depositor's hits bear a star; ? = inconclusive; / = no result given; [ ] = another dose, or the depositor's remark.

compound	D2 ag	Sfp inh	Six1-Eya2 inh	D2 potentiator	TRPV1 PAM	PINK1 expr mod	CtBP-E1A inh
O=C(CCN1C(=O)c2ccccc2C1=O)Nc1cccc(O)c1	-4.0	-3.7%	1.5	-3.9	-28.3	1.9%	-18.1
COC(=O)c1cnc(Oc2ccc(NC(=O)NC(=O)c3c(F)cccc3Cl)cc2)cc1C(F)(F)F	-6.4	1.6%	-0.3	-5.0	3.3	11.1%	7.0
COc1ccc(C2CC(c3ccccc3)=NN2c2ccc(/C=N/NC(=O)c3ccncc3)cc2)cc1 (stereo not given)	-1.6	24.3%	0.0	-11.9	7.5	5.7%	2.8
COc1cccc(C2/C(=C(/O)c3ccccc3)C(=O)C(=O)N2Cc2ccco2)c1 (stereo not given)	-1.8	?	6.8	-3.5	4.2	0.3%	4.6
Cc1ccc2c(c1)C=CC(C)(C)S2(=O)=O	0.5	-6.7%	9.4	-9.6	-10.6	-0.3%	4.2
CCCN(CCC)C(=O)CC(c1ccccc1)c1cc(C)ccc1O (stereo not given)	-1.0	1.3%	-4.2	-14.1	-14.0	-0.6%[38.3 µM]	1.1
CCOC(=O)c1ccc2[nH]c(C)c(CCC(C)=O)c(=O)c2c1	-0.4	10.1%	0.8	-3.7	-1.5	3.9%[38.3 µM]	16.0
COc1ccccc1NCC(=O)Nc1cc(S(=O)(=O)N2CCOCC2)ccc1N1CCOCC1	1.7	7.1%	0.6	18.5	-4.3	1.3%	10.8
O=S(=O)(c1ccc2c(c1)OCCO2)N1CCC(n2nnc3cc(F)ccc32)CC1	3.0	15.4%	-2.1	5.0	0.7	0.6%	0.5
C[C@H](CO)N1C[C@H](C)[C@@H](CN(C)Cc2cccc3c2OCCCO3)OCc2cnnn2CCCC1=O	-1.4	/	-2.9	-5.8	/	-0.3%	0.0
COc1ccc(S(=O)(=O)N(CCc2ccccc2)CC(N)=O)cc1	4.4	-23.5%	-4.9	-2.4	11.1	-1.1%	0.0
CC(O)(c1ccc(F)c(F)c1)c1nc(-c2cccc(C(=O)O)c2)cs1 (stereo not given)	-2.5	/	4.9	-4.0	/	-0.3%	3.0
Cc1cc(NC(=S)NC(=O)c2ccccc2)ccc1-c1cc2ccccc2oc1=O	0.6	?	-0.5	-0.9	-1.7	?	-3.0
COCCn1c(SCC(=O)N2CCCCC2)nc2c(c1=O)SC(C)C2 (stereo not given)	-4.1	4.2%	1.2	-8.8	8.9	5.1%	0.4
COc1ccc(-c2[nH]ncc2CN2CCC(N3CCSCC3)CC2)cc1F	3.6	5.6%	1.5	-8.0	-2.9	-0.1%	4.2
CCN(CC)S(=O)(=O)c1ccc(NC(=O)CSc2cccc[n+]2[O-])cc1	-3.3	-8.2%	0.7	-13.7	7.0	-1.6%[38.3 µM]	2.7
CSC(=S)N/N=C/c1ccccc1	2.2	8.1%	0.0	-7.2	13.9	-2.5%	-22.3
CC1(c2ccc(OC(F)F)cc2)NC(=O)N(CC(=O)Nc2cccc(S(N)(=O)=O)c2)C1=O (stereo not given)	-4.1	18.4%	0.4	-11.0	-15.8	1.4%	-12.8
COc1cccc(CN=c2c([N+](=O)[O-])nn(-c3ccccc3C)n2O)c1	10.4	23.3%	-4.1	?	17.7	-0.6%	-8.6
Cc1ccc(-c2noc(CSc3nc(N)cc(N)n3)n2)cc1	-0.8	35.9%[activator]	-0.1	-2.4	9.8	0.0%	3.5
CCc1ccc(NC(=O)CC2C(=O)NCCN2C(=S)Nc2ccccc2)cc1 (stereo not given)	-1.7	5.0%	-9.5	-13.8	-6.3	0.4%	-16.6
CCCCOCCCNC(=O)c1ccc([N+](=O)[O-])c(C)c1	-0.6	5.5%	0.3	-10.9	-27.2	-0.8%	15.6
CCC1(c2ccc(F)cc2)NC(=O)N(CC(=O)NCc2ccccc2Cl)C1=O (stereo not given)	-7.2	13.0%	0.8	-5.9	-7.5	0.0%	/
O=C(O)c1ccccc1NS(=O)(=O)c1cccc2cccnc12	0.3	-6.8%	10.8	-1.9	-1.3	0.5%	8.5
CCCS(=O)(=O)N1CCN(Cc2ccco2)CC1	-2.2	?	2.5	4.6	-1.1	-2.4%	6.7
O=C(NC1=NCCS1)C12CC3CC(C1)CC(C(=O)NC1=NCCS1)(C3)C2	-1.0	19.3%	6.4	14.7	?	6.7%	12.8
CN(C)S(=O)(=O)c1cccc(NC(=O)c2cc3ccccc3o2)c1	-0.7	-26.9%	-13.4	-47.3	29.9	/	-1.2
Cc1ccc(C(=O)NCC(=O)N2CCC(Cc3ccccc3)CC2)cc1	-6.0	10.2%	14.0	3.3	-10.3	-1.2%	-5.4
CCCn1nnnc1NCc1ccc(SC)cc1	-1.0	14.1%	-0.3	-1.0	-11.2	2.9%	6.5
CCN(CC)c1ccc(NC(=O)COC(=O)CCC(=O)c2ccc(F)cc2)cc1	-2.6	-4.3%	?	-0.8	-17.4	2.5%	?

Reprinted from the part before: 3 compounds, followed by the next part.
compound	D2 ag	Sfp inh	Six1-Eya2 inh	D2 potentiator	TRPV1 PAM	PINK1 expr mod	CtBP-E1A inh
Cc1ccc(C(=O)NCC(=O)N2CCC(Cc3ccccc3)CC2)cc1	-6.0	10.2%	14.0	3.3	-10.3	-1.2%	-5.4
CCCn1nnnc1NCc1ccc(SC)cc1	-1.0	14.1%	-0.3	-1.0	-11.2	2.9%	6.5
CCN(CC)c1ccc(NC(=O)COC(=O)CCC(=O)c2ccc(F)cc2)cc1	-2.6	-4.3%	?	-0.8	-17.4	2.5%	?
COc1ccc(CONS(=O)(=O)c2ccc(NC(C)=O)cc2)cc1Cl	1.7	7.4%	-2.3	8.0	2.3	-3.1%[38.3 µM]	3.6
COc1ccc2c(c1)S(=O)(=O)c1ccccc1N2	2.2	13.1%	1.1	8.2	?	0.1%	2.9
O=C1NC(=S)S/C1=C\c1coc2ccccc2c1=O	-4.6	2.1%	-5.1	-10.6	17.0	1.5%	/
COc1ccc(NC(=O)CSc2nnc(-c3ccccc3Cl)n2Cc2ccco2)c(OC)c1	0.0	7.08µM*	-14.0	4.8	18.5	2.0%	-6.7
C#CCOCCOCCOCCNc1nc(N2CCN(C(=O)CCCCCCCCCCNC(=O)Cn3cc(CCCCCN)nn3)CC2)nc(N2CCN(C(=O)CCCCCCCCCCNC(=O)Cn3cc(CCCCCN)nn3)CC2)n1	-2.0	/	-5.9	-6.9	-23.8	2.1%	-0.7
COc1cc(OC)c(NC(=O)c2cc3ccccc3cc2O)cc1Cl	4.1	/	3.4	20.4	/	?	-0.3
CCCCn1nc2cc(C(=O)NCc3cc(C(F)(F)F)cc(C(F)(F)F)c3)ccc2c1OCC	-7.7	9.5%	13.5	-1.4	6.6	-1.1%	-12.4
Cn1nc(C(F)(F)F)cc1C(=O)O	-6.2	16.8%	3.4	-2.3	10.5	-1.1%	6.7
Cc1ccc(C(O)P(=O)(OC(C)C)c2ccc(N(C)C)cc2)cc1 (stereo not given)	-5.4	0.0%	24.0	-2.9	8.9	10.2%	0.0
CC(C)Cc1nnc(NC(=O)Cc2cccs2)s1	0.4	-22.2%	-11.3	-1.6	?	0.2%	3.2
C#CCN(C[C@H]1[C@H](OC(=O)NCC2CCCCC2)[C@H](OC(=O)NCC2CCCCC2)C[C@H]2C(=O)N(c3ccccc3)C(=O)[C@@H]12)S(=O)(=O)c1ccc(C)cc1	-8.8	/	-22.4	-1.0	/	5.1%	-9.5
CC(C)NC(=S)NNc1nc2ccccc2s1	14.0	2.51µM*	-2.0	6.5	7.6	0.0%	0.4
COC(=O)CSc1nnc(C)n1-c1ccc(C)cc1	-5.1	17.0%	0.4	-7.8	2.2	-1.6%	3.9
CN(C)c1ccc(N/C=C/C(=O)c2ccccc2)cc1	6.9	20µM*	-29.9	?	3.5	9.4%[38.3 µM]	?
COC(=O)c1ccc(CSc2ccccc2NC(=S)Nc2cccc(SC)c2)o1	-8.9	/	-15.6	-18.4	/	2.7%	-5.0
O=C1CN(c2nc(-c3cccnc3)nc3scc(-c4ccccc4)c23)CCN1	-3.3	-10.1%	-0.9	-8.3	3.6	0.0%	12.0
CN(C)c1ccc(NC(=O)C[n+]2ccccc2)cc1	0.7	5.9%	-0.7	-5.6	0.1	-2.3%	-1.9
CN(C(=S)NC(=O)C1CCCC1)c1ccccc1	-3.6	/	2.6	-9.7	/	0.2%	0.7
O=C(/C=C/c1ccco1)NC(=S)Nc1ccccc1Br	-0.5	-25.8%	-2.9	-20.0	6.0	0.1%	-25.5
COc1cccc(N2CCN(C(=S)Nc3ccc(C)cc3C)CC2)c1	2.7	31.7%[activator]	-2.1	-2.5	-18.7	0.8%	/
O=C(NCc1cccnc1)c1cc(-c2cccs2)on1	-0.2	7.0%	3.9	-9.7	0.4	-2.5%	4.8
O=C(O)Cn1c(SCc2ccccc2)nc2ccccc21	-0.1	30.4%[activator]	12.3	-3.5	0.4	2.2%	1.9
CC1CN(C(=O)CCNC(=O)c2ccccc2Cl)CC(C)O1 (stereo not given)	-2.2	12.3%	-0.2	2.1	8.2	-0.4%	-9.9
Cc1c(NC(=O)CN2C(=O)c3cccc4cccc2c34)c(=O)n(-c2ccccc2)n1C	-3.2	12.3%	-2.1	-9.9	-17.7	0.7%	-0.2
CC1(C)CC(=O)C(C(=O)c2ccccc2)C(=O)C1	-1.5	20.2%	-6.0	-5.2	0.7	-0.1%	-7.6

Assay outcomes from PubChem.
